Compound activity: PubChem, ICCB-Longwood Screening Facility, Harvard Medical School
Sa helicase inh: blocks Staphylococcus aureus DNA helicase. AID 485395. 120,000 compounds, 0.05% hits. inhibition, %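 (tested at about 80 µM)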. purified S. aureus helicase, fluorescence unwinding assay; about half of the hits fall short of the stated cut;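 active = both duplicates at 50% or more, or one of them with a favoured structure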;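 note: 0% = mean of negative control wells and 100% = mean of positive control wells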
MgrA DNA FP: modulators of Staphylococcus aureus MgrA DNA binding; 84,000 compounds, 0.13% hits; fluorescence polarization; inhibition, %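 (about 10 µg/mL by stock and volumes)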;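 active = above 50% in either of two replicates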;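 note: 0% = protein plus DNA without compound and 100% = DNA alone without protein; higher means less MgrA bound to DNA so lower polarization; one replicate is shown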
Active calls of the source: *; x = not tested or not shown. An excerpt (hit frequency here may not be typical).

A first look, four compounds:
SMILES	Sa helicase inh	MgrA DNA FP
CCOC(=O)N1CCN(C(=O)CSc2c3c(nc4ccccc24)CCCC3)CC1	7.0	x
Cc1onc(-c2ccccc2Cl)c1C(=O)NCC1COc2ccccc2O1 (stereo not drawn)	2.0	x
COc1ccc(C2CC(=O)C3=C(C2)Nc2ccccc2NC3c2ccc(OC(C)=O)c(OC)c2)cc1 (stereo not drawn)	x	-1.7
CNC(=S)Nc1ccc2[nH]c(=O)[nH]c2c1	8.0	x

All compounds of this part, from the start:
SMILES	Sa helicase inh	MgrA DNA FP
CCOC(=O)N1CCN(C(=O)CSc2c3c(nc4ccccc24)CCCC3)CC1	7.0	x
Cc1onc(-c2ccccc2Cl)c1C(=O)NCC1COc2ccccc2O1 (stereo not drawn)	2.0	x
COc1ccc(C2CC(=O)C3=C(C2)Nc2ccccc2NC3c2ccc(OC(C)=O)c(OC)c2)cc1 (stereo not drawn)	x	-1.7
CNC(=S)Nc1ccc2[nH]c(=O)[nH]c2c1	8.0	x
CCOC(=O)c1cnc2ccc(OCC)cc2c1N(C)Cc1ccccc1	9.0	-0.9
O=C(CCCn1c(=O)c2cccn2c2ccccc21)NCC1CCCO1 (stereo not drawn)	2.0	0.0
CCOc1cccc(C(=O)Nc2cc(-c3nc4ccccc4s3)ccc2Cl)c1	x	1.4
N#C/C(=N\Nc1ccccc1Cl)S(=O)(=O)c1ccc(Cl)cc1	x	-0.1
S=C(NCC1CCCO1)SCc1cn2cccnc2n1 (stereo not drawn)	-5.0	x
O=C(OC1CCOC1=O)C1CCN(S(=O)(=O)c2ccccc2)CC1 (stereo not drawn)	1.0	x
NCCC(=O)N1CCCC1	4.0	x
Cc1cc(N2CCN(c3ccccc3)CC2)nc2cc(Cl)ccc12	7.0	-0.3
O=S(=O)(c1ccc(N(C(F)F)S(=O)(=O)c2ccc(Cl)cc2)cc1)N1CCOCC1	6.0	6.1
COc1cccc(CNC(C)(C)CO)c1OCc1ccc(Cl)cc1	7.0	-0.2
O=C(O)c1cccc(Nc2nc(-c3ccccc3)c3ccccc3n2)c1	-4.0	5.4
Brc1c(-c2ccccc2)nc2n1-c1ccccc1C2	14.0	x
CC(C)N1C(=O)C2C(c3ccccc3O)NC(C)(C(=O)O)C2C1=O (stereo not drawn)	6.0	x
O=C(COc1c(-c2ccccc2)oc2ccccc2c1=O)N1CCOCC1	5.0	-4.5
O=C(c1ccco1)N1CCN(Cc2ccc(F)cc2)CC1	16.0	x
CCn1c(=O)c2cc(C(=O)N(C)Cc3ccco3)sc2c2ccccc21	19.0	-2.5
NC(=O)CSc1nc2ccccc2c(=O)[nH]1	0.0	x
COc1cc(NS(=O)(=O)c2ccc(N3C(=O)c4ccccc4C3=O)cc2)nc(OC)n1	20.0	x
O=C(NC1CC2CCC1C2)c1ccc(CN2CCN(c3ccccc3)CC2)cc1 (stereo not drawn)	1.0	-1.2
CN(C)CP(=O)(O)CCc1ccccc1	-2.0	1.4
O=C(NCC(c1cccs1)N1CCOCC1)Nc1ccccc1Cl (stereo not drawn)	12.0	x
O=C(Cn1ncc2c3ccccc3n(Cc3cccc(Cl)c3)c2c1=O)N1CCCC1	-111.0	x
Cc1ccnc(SC2CC(=O)N(c3ccc(C)c(C)c3)C2=O)n1 (stereo not drawn)	10.0	11.2
NNC(=O)CNC(=O)c1cc(Cl)ccc1Cl	-4.0	x
CCOc1ccccc1NCC(=O)Nc1ccccc1C#N	-8.0	x
C/C(N)=N\S(=O)(=O)c1ccc(Cl)cc1	-14.0	x
Cn1ncc(C(C#N)c2nc3ccccc3s2)c(Cl)c1=O (stereo not drawn)	6.0	x
O=C(CNc1ncnc2ccccc12)OCCOc1ccccc1	1.0	x
O=C(CCc1nnc2ccc(NCc3ccco3)nn12)Nc1cccnc1	12.0	x
Nc1n[nH]c(C(F)(F)C(F)(F)C(F)(F)F)n1	7.0	3.0
CCOC(=O)N/N=C/c1cccs1	x	2.0
Cc1nc(-c2cc3cc(Cl)ccc3o2)cs1	x	-2.3
CN1C(=O)/C(=C\c2ccccc2)Sc2ccc(C(=O)NCc3cccs3)cc21	11.0	-2.5
Cc1nn(-c2ccccc2)c(N)c1C1(O)C(=O)Nc2ccccc21 (stereo not drawn)	-17.0	0.9
CC1CCCCN1C(=O)CSc1nnc(NCc2ccccc2)s1 (stereo not drawn)	-2.0	x
N/C(CC(=O)N1CCCC1)=N\O	x	-0.3

Single records, from the list above. Order of screens: Sa helicase inh | MgrA DNA FP
Listed for CN(C)CP(=O)(O)CCc1ccccc1 : -2.0 | 1.4
Listed for O=C(NC1CC2CCC1C2)c1ccc(CN2CCN(c3ccccc3)CC2)cc1 (stereo not drawn) : 1.0 | -1.2
Listed for Nc1n[nH]c(C(F)(F)C(F)(F)C(F)(F)F)n1 : 7.0 | 3.0

Next part.
SMILES	Sa helicase inh	MgrA DNA FP
N#C/C(=C\c1ccc2c(c1)OCO2)C(=O)Nc1ccc(-c2nnc3n2CCCCC3)cc1	-10.0	x
CC1CN(C(=O)c2cc3c(s2)CCCC3)CC(C)O1 (stereo not drawn)	-9.0	x
COc1ccc(C(=O)Oc2ccc(/C=N/N=C3\NC(=O)CS3)cc2OC)cc1	12.0	x
Oc1ccc(CN2CCCC2)c2cccnc12	5.0	3.7
CC1SC(=Nc2ccc(S(=O)(=O)N3CCOCC3)cc2)NN=C1C12CC3CC(CC(C3)C1)C2 (stereo not drawn)	-2.0	x
COc1cc(O)c2c(=O)cc(-c3ccccc3)oc2c1	x	-0.7
Cc1cccc(N=C2NC(=O)/C(=C3/C(=O)N(CC(=O)O)c4ccccc43)S2)c1C	8.0	7.8
O=C1NCCCCC1NS(=O)(=O)c1ccc2c(c1)CCO2 (stereo not drawn)	x	2.4
O=S(=O)(NCC1CN(Cc2ccccc2)CN(Cc2ccccc2)C1)c1ccc(Cl)cc1	x	-3.3
Cc1cc(C)c2c(n1)sc1c(Sc3nnc(-c4cccs4)o3)ncnc12	5.0	x
COC(=O)Cn1nnc(N2CCOCC2)n1	x	0.3
C=C(C)C(=O)OC1CC(C)=C2C(=O)C=C(C)C2C2OC(=O)C(C)(OC(=O)C(=C)C)C12 (stereo not drawn)	30.0	x
CCNC(=S)N(CCc1c(C)[nH]c2ccccc12)Cc1ccco1	-13.0	x
CCCNC(=O)Nc1ccc2c(c1)OCCO2	-2.0	4.0
CN1C(=O)C(C(=O)NC(C)(C)C)C2c3ccccc3OC13CCCCC23 (stereo not drawn)	11.0	x
O=C(OCc1cnc(Cl)s1)c1ccc(Cl)cc1	x	1.9
Cc1cc(N(Cc2cccc(Cl)c2Cl)C(=O)c2ccccc2)no1	x	2.8
O=C1N=c2ccc(Br)cc2=C1c1sc(=O)n(-c2ccccc2)c1O	x	1.9
CC(C)(C)NC(=S)N1CCn2cccc2C1c1ccccc1F (stereo not drawn)	8.0	1.7
C/C(=N/O)C12CCC(CC1)C2	x	0.0
c1n[nH]c(SCc2cn3ccsc3n2)n1	-6.0	x
CCc1nnc(NC(=O)[C@@H]2CCCN2C(=O)c2cccs2)s1	-3.0	x
CCn1c(=NC(=O)C2COc3ccccc3O2)sc2cccc(F)c21 (stereo not drawn)	3.0	x
Cc1c([N+](=O)[O-])c(C/C=N/O)nn1C	x	-1.8
CCN(c1cccc(C)c1)C(C(=O)NC1CCCC1)c1ccccc1 (stereo not drawn)	13.0	0.5
COc1cccc(/C=N/NC(=O)c2ccoc2C)c1	23.0	x
CC1=C(C(=O)O)SC2=NCCCCN21	2.0	-0.8
CC(C)n1nnc(CC(=O)O)n1	-16.0	-1.1
CCCc1nc(NC)nc(-c2ccccc2O)n1	5.0	x
Cc1ccccc1-n1nnnc1SCC(=O)N1CCCc2ccccc21	-3.0	x
COCCNC(=S)N1CCN(c2ccc(S(=O)(=O)N3CCCC3)cc2)CC1	1.0	1.1
COC(OC)C(C)NC(=O)NC(=O)c1ccccc1Cl (stereo not drawn)	x	-0.2
CN1C(=O)c2ccc(C(=O)NCCCn3ccnc3)cc2C1=O	3.0	-1.9
O=C1OC(c2ccc(Cl)cc2)Sc2ccccc21 (stereo not drawn)	x	0.0
Cc1sc2nc(CCl)nc(Cl)c2c1C	-6.0	-0.8
C=CCN1C(=O)N(c2ccccc2)C(=O)C1CC(=O)Nc1ccccc1 (stereo not drawn)	7.0	-1.4
CC(C)C(NC(=O)c1ccccn1)c1ccc2c(c1)OCCCO2 (stereo not drawn)	6.0	x
COc1cc2c(cc1OC)C1CC(=O)C(CC(C)C)CN1CC2 (stereo not drawn)	2.0	-3.2
Cc1ccc2nc(CCc3nc4ccc(C)cc4[nH]3)[nH]c2c1	6.0	x
O=C(C1CCN(S(=O)(=O)Cc2ccccc2)CC1)N1CCCc2ccccc21	-3.0	-0.8
CC1(C)c2ccccc2-n2c1cc1oc(=O)cc(O)c1c2=O	19.0	x
O=C1C(c2ccncc2)=C(O)c2ccccc21	21.0	x
Nc1ccc(S(=O)(=O)Nc2ccccc2)cc1	3.0	x
CCCc1n[nH]c2c1/C(=N\O)CC(c1ccccc1)C2 (stereo not drawn)	2.0	-0.6
O=C(CSc1ncn[nH]1)OCN1C(=O)c2ccccc2C1=O	0.0	-0.1
Cc1cnc2c(c1SCC(=O)NCc1ccc3c(c1)OCO3)c(=O)n(C)c(=O)n2C	12.0	x
CCOC(=O)c1ccc(NC(=O)/C=C/c2cccs2)cc1	5.0	-2.7
O=C1c2ccccc2C(=Nc2ccccc2)C1c1ccccc1 (stereo not drawn)	-2.0	-1.1
O=C(C1=COCCO1)N1CCN(C(c2ccccc2)c2ccccc2)CC1	-11.0	x
CC1=C(c2ccccc2)SC2=NCCN21	11.0	-0.2
CCn1c(SCC(=O)Nc2ccccc2C(=O)NC2CC2)nc2cc(S(N)(=O)=O)ccc21	10.0	x
Cc1ccc2cc(NC(=O)c3cccs3)ccc2n1	x	-2.6
C#CCn1c(CSc2ccccc2)nc2ccccc21	12.0	3.3
O=C(c1ccccc1)N1CN(C2CCCCC2)Cc2c1sc1c2CCCC1	16.0	-1.5
Cc1cc(NC(=O)CN2CCCCC2)n(-c2ccccc2)n1	x	-2.5
COC(=O)c1ccc(N2CCOCC2)c(NC(C)=O)c1	-21.0	6.9
Cc1cc(C)c2c(CC(=O)NC(C)C)coc2c1	-6.0	-4.0
CCOC1(c2cccs2)OC(c2cccs2)=C(c2cccs2)OC1c1cccs1 (stereo not drawn)	-24.0	x
Cc1ccc(N=Cc2c(Sc3ccc(Cl)cc3)nc3sccn23)cc1	x	-1.6
Cc1ccc(S(=O)(=O)NC(=O)N2CC3(C)CC2CC(C)(C)C3)cc1 (stereo not drawn)	-11.0	x

Some values from above.
C#CCn1c(CSc2ccccc2)nc2ccccc21 | MgrA DNA FP: 3.3
O=C(c1ccccc1)N1CN(C2CCCCC2)Cc2c1sc1c2CCCC1 | MgrA DNA FP: -1.5
Cc1cc(NC(=O)CN2CCCCC2)n(-c2ccccc2)n1 | MgrA DNA FP: -2.5
CC1(C)c2ccccc2-n2c1cc1oc(=O)cc(O)c1c2=O | Sa helicase inh: 19.0
Cc1ccc(N=Cc2c(Sc3ccc(Cl)cc3)nc3sccn23)cc1 | MgrA DNA FP: -1.6
O=C1C(c2ccncc2)=C(O)c2ccccc21 | Sa helicase inh: 21.0

Carrying on:
SMILES	Sa helicase inh	MgrA DNA FP
CCCc1noc2c1C(=O)CC(C)(C)C2	-6.0	-0.2
C=CCNc1nc(Nc2ccc(Cl)cc2)nc(OC)n1	-9.0	0.2
Cc1nc2ccccc2n1C(F)(F)C(F)F	24.0	x
Cc1c(C(=O)CSc2nnc(CN3CCOCC3)n2C)c2ccccc2n1C	2.0	-3.2
CN(CCC#N)C(=O)C1CCN(S(=O)(=O)c2cccs2)CC1	8.0	x
COc1cc(Br)cc2cc3c(=O)n(-c4ccccc4)nc-3oc12	2.0	1.7
Nc1nc(N)nc(CSc2nncs2)n1	11.0	x
NC(=O)c1sccc1NC(=O)CSc1ccc(Cl)cc1	x	-2.2
O=C(Oc1ccc(/C=N/O)cc1)c1ccccc1	29.0	0.9
CN(Cn1nc2c(Cl)cc(Cl)cn2c1=S)C1CCCCC1	4.0	x
COC(=O)c1nnn(-c2nc(N3CCCCC3)nc(N3CCCCC3)n2)c1C	7.0	x
O=C(Cc1c[nH]c2ccccc12)OCC(=O)c1ccc(F)cc1	11.0	-1.9
COc1ccc(Cl)cc1-c1csc(CC#N)n1	-1.0	x
CCn1cc(C(=O)O)c(=O)c2cnc(N3CCN(C(=S)NC)CC3)nc21	-1.0	1.7
O=C(NCc1noc2ccccc12)N1CCCCC1	-19.0	1.2
Cc1ccc2c(c1)c1c(n2C)C(=O)CCC1	1.0	x
CCN1CCC(N(Cc2cccc(OC)c2)C(=O)Nc2cc(C)cc(C)c2)CC1	12.0	x
O=C(O)CC12CC3CC(CC(Cl)(C3)C1)C2	10.0	-2.8
CCn1c(=O)c2cc(C(=O)N(C)CCC#N)sc2c2ccccc21	9.0	-1.5
Cn1c(SCc2ccccc2)nnc1C1CCCN1CC(=O)N1CCN(c2ccc(F)cc2)CC1 (stereo not drawn)	6.0	1.4
COC(=O)/C=C1\S/C(=N\c2ccccn2)N(c2cccc(C(F)(F)F)c2)C1=O	x	-1.0
Cc1nnc(SCc2cc(Cl)c3c(c2)OCCCO3)n1C1CC1	15.0	x
CN(CC(=O)O)C(=O)c1ccco1	7.0	-4.0
C=CCSC1=N/C(=C\c2ccc(-c3ccc(F)cc3)o2)C(=O)S1	-36.0	12.9
O=c1oc2ccc(Br)cc2cc1-c1csnn1	-15.0	x
O=C(OCc1ccccc1)[C@@H]1CCCN1C(=O)c1cccs1	-5.0	x
C[N+]1(CCOCc2ccccc2)CCOCC1	21.0	-0.6
O=C(OCc1cc(=O)n2c(n1)sc1ccccc12)C1CCN(S(=O)(=O)c2ccccc2)CC1	-2.0	x
COC(=O)/C=C/c1cc2ccccc2o1	x	1.8
CC1CCCC(C)N1C(=O)Nc1ccccc1 (stereo not drawn)	20.0	0.7
CCOC(=O)c1cc(C)n(S(=O)(=O)c2ccc(C)cc2)c1C	13.0	0.5
O=C(CCCN1C(=O)c2ccccc2C1=O)N1CCCCCC1	6.0	x
COc1cc(CC(=O)OC2CCOC2=O)cc(OC)c1OC (stereo not drawn)	-3.0	x
CCCc1cc(=O)[nH]c(SCc2cc(=O)oc3cc(C)ccc23)n1	-7.0	x
